# Screening data (PubChem)
# HIV Env fusion – inhibitors of HIV-1 Env-driven cell-cell fusion, primary screen, HeLa-JRFL effector, CEM21 target cells, luciferase. 360,000 compounds, 1.1% hits. inhibition, % at 12.3 µM;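 active means mean replicate inhibition score of at least 50 and every replicate individually at or above 50; inconclusive means only one of the two criteria met; inactive means mean below 50 and not all replicates reaching 50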;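 further: 0% = plate neutral controls and 100% = maraviroc near 300 nM; one replicate is shown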
# MT1-MMP act inh – blockers of MT1-MMP proenzyme processing, primary screen, HT1080 RFP-PRO-GFP cells, GFP/RFP fluorescence; 360,000 compounds, 0.061% hits; GFP/RFP ratio change, % at 20 µM; AID 651647, 2012; GFP/RFP ratio fluorescence, overnight; percent of plate control window, DMSO zero;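 active means GFP/RFP ratio change of at least 30% with cell ATP level not reduced by more than half and red fluorescence within 50% of control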; further: strong numbers were not always called active
#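 Material – HT1080 RFP-PRO-GFP cells · Control set – DMSO wells and RFP-L50D-GFP cells · Incubation – overnight cell settling, then overnight compound exposure, 37 °C, 5% CO2 · Compound dosing – single-point 20 µM compound, 1% DMSO · Read-out – GFP/RFP fluorescence ratio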
# MT1-MMP act inh RFP – recorded beside MT1-MMP act inh, whose call it bears; RFP signal change, %; measured here: RFP expression control read;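 0 = vehicle wells; hits needed this value within 50% of zero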
# * = called active by the depositor; i = inactive; ? = inconclusive; [ ] = dose if it differs, or a comment. Only part of the results is shown (hit frequency here may not be typical).
# The first 2 compounds as a preview:
HIV Env fusion	MT1-MMP act inh	MT1-MMP act inh RFP	compound
-7	2	3	Cc1cc2nc(-c3ccc(Cl)cc3)c(Cc3ccsc3)n2c(C)c1Br
-10	-22	3	COC1C=COC2(C)Oc3c(C)c(O)c4c(O)c(c(CN5CCN(C)CC5)c(O)c4c3C2=O)NC(=O)C(C)=CC=CC(C)C(O)C(C)C(O)C(C)C(OC(C)=O)C1C (stereo not given)

# This part in full, from the first entry:
HIV Env fusion	MT1-MMP act inh	MT1-MMP act inh RFP	compound
-7	2	3	Cc1cc2nc(-c3ccc(Cl)cc3)c(Cc3ccsc3)n2c(C)c1Br
-10	-22	3	COC1C=COC2(C)Oc3c(C)c(O)c4c(O)c(c(CN5CCN(C)CC5)c(O)c4c3C2=O)NC(=O)C(C)=CC=CC(C)C(O)C(C)C(O)C(C)C(OC(C)=O)C1C (stereo not given)
i	21	3	CC(=Nc1ccccc1)C1=C(O)C(Cc2ccc(O)cc2)NC1=O (stereo not given)
1	3	-2	COC(=O)[C@]12CCCCC=C1N(Cc1cccc3ccccc13)C(=O)[C@H](CC(=O)NCCCN1CCCC1=O)C2
23	0	-6	O=C(NCCN1CCC(n2c(=O)[nH]c3ccccc32)CC1)c1ccccc1Cl
-13	0	0	NC(CSC1(c2ccc(Cl)cc2)c2ccccc2-c2ccccc21)C(=O)O (stereo not given)
9	1	2	O=[N+]([O-])c1ccc(Cl)cc1P(=O)(O)c1cc(Cl)ccc1[N+](=O)[O-]
-176	4	4	CCCCNC(=O)C[C@@H]1C[C@@]2(C(=O)OCC)CCC=C2N(CCC2=CCCCC2)C1=O
-24	-1	0	O=CN1CCN(C=O)C(O)C1O (stereo not given)
-25	3	1	OC(c1cccc(F)c1)c1ncc(-c2ccc3ccccc3c2)[nH]1 (stereo not given)
-1	2	2	COC(=O)CC(CC(=O)OC)n1cccc1
80*	1	-4	COC(=O)[C@]12CCCCC=C1N(CCC1=CCCCC1)C(=O)[C@H](CC(=O)NCc1ccc(OC)c(OC)c1)C2
-31	1	-3	O=C(CCCc1ccncc1)c1ccccc1
3	6	-5	COc1ccc(CCn2c(C)cc(C(=O)COC(=O)c3ccc(O)cc3O)c2C)cc1
35	3	4	CC1(c2nnnn2Cc2ccccc2)CCC(=O)N1Cc1ccco1 (stereo not given)
7	7	5	O=C1C=C(OCCF)CC(c2ccccc2C(F)(F)F)O1 (stereo not given)
-269	-2	-5	O=C(NC1CCCC1)C(C1CC1)n1c(-c2cc3ccccc3[nH]2)nc2ccccc21 (stereo not given)
-13	0	-5	CC(C)(CC(=O)c1ccccc1)CC(=O)c1ccccc1
-5[16.7 µM]	0	2	CCS(=O)(=O)N1Cc2cc(C(=O)NCCOC)nc(-c3cccc(-c4ccncc4)c3)c2[C@H]1CCO
-22	-1	-1	CCCCOCCCNC(=O)C[C@@H]1C[C@@]2(C(=O)OC)CC(C)(C)CC=C2N(CCc2ccc(OC)c(OC)c2)C1=O
-7	3	4	CCOC(=O)[C@]12CCCC=C1N(CCc1ccc(OC)c(OC)c1)C(=O)[C@H](CC(=O)N1CCCC1)C2
12	-1	6	COC(=O)C[C@@H]1C=C[C@@H](NC(=O)NC2CCCC2)[C@@H](CO)O1
22	-4	1	CCC(c1nnnn1-c1c(C)cccc1C)N1CCN(CC)CC1 (stereo not given)
-67	-9	3	CC(c1nc2ccccc2[nH]1)n1c(=O)c(-c2ccco2)nc2ccccc21 (stereo not given)
-61	5	5	O=C(NCC1CC1)NC(=O)c1ccccc1F
3	-8	-5	COC(=O)[C@@]12C[C@@H](CC(=O)N3CCCC3)C(=O)N(Cc3ccccc3)C1=CCC(C)(C)C2
18	1	-12	CCCCNC(=O)C1C(c2ccc(C(F)(F)F)cc2)=Nc2ccccc2N1C(=O)c1ccc2nc(C)[nH]c2c1 (stereo not given)
23	-6	-11	CCCCCCCCN1C(=O)[C@H](CC(=O)NCCC(C)C)C[C@@]2(C(=O)OC)CC(C)(C)CC=C12
7	-2	-4	COc1ccc(COC[C@H](CC(C)C)N2CCN(C(=O)c3cccc(C(F)(F)F)c3)CCC2=O)cc1
-21	-2	-1	Cc1ccc(NC(=O)Cn2c(C)csc2=O)cc1
-31	1	5	COCCN1C(=O)CN(S(C)(=O)=O)CC1(C)C(=O)NCc1ccccc1 (stereo not given)
1	1	5	O=C(Nc1ccc(F)cc1)C(c1cccc(F)c1)N1CCN(C(=O)c2ccco2)CC1 (stereo not given)
1	-6	-13	CCCCC[C@H]1CCCCC[C@H](O)C[C@@H](O)[C@H](O)/C=C/C(=O)O1
-24	1	6	O=C(O)c1ccc([N+](=O)[O-])cc1Sc1ccsc1
-17	5	7	Cc1cc(NC2=CC(=O)C(=O)c3ccccc32)no1
1	2	0	O=C(Nc1ccc2c(c1)OCCO2)C1c2ccccc2OCC(=O)N1Cc1cccnc1 (stereo not given)
7	14	7	O=c1c2ccccc2sc2c(CO)ccc(NCCN3CCCCC3)c12
-17	0	-9	CCOC(=O)[C@]12CCC=C1N(Cc1cccc3ccccc13)C(=O)[C@H](CC(=O)NCCc1ccccc1OC)C2
6	6	0	Cc1ccc(C(=O)NCCN2CCC(n3c(=O)[nH]c4ccccc43)CC2)cc1F
-58	2	0	O=[N+]([O-])c1cccc(C=NN2CCCCCC2)c1
-10	0	2	CCCCNC(=O)C[C@@H]1C[C@@]2(C(=O)OC)CCCCC=C2N(Cc2ccco2)C1=O
-11	6	3	COc1cc(CC2C(=O)OCC2C(=O)c2ccc3c(c2)OCO3)cc(OC)c1OC (stereo not given)
22	14	3	COc1cc(CCNC2=CC(=O)c3ncccc3C2=O)ccc1O
-6	5	-4	CCCS(=O)(=O)Nc1ccc(Nc2c3ccccc3nc3ccccc23)c(OC)c1
9	0	2	CN(Cc1ccccc1)C(=O)Nc1c(Cl)cccc1Cl
9	3	2	CC1CN(Cc2ccccc2)C(=O)N(c2ccccc2)C1=O (stereo not given)
15	-5	-7	COC(=O)[C@@]12C[C@@H](CC(=O)NCCc3ccccc3OC)C(=O)N(CCc3ccc(OC)c(OC)c3)C1=CCC(C)(C)C2
11	-2	-3	Cc1ccc(NC(=O)CN(C)C(=O)CSc2nc3ccccc3c(=O)n2CCO)cc1
38	-3	-3	CSCCC(C(=O)NCc1ccccc1)n1c(Cc2cc(F)cc(F)c2)nc2ccccc21 (stereo not given)
34	-1	-6	C[C@H](c1ccccc1)N1C[C@@H](COCc2ccccc2)Oc2cc(N3CCC[C@@H]3CO)ccc2S1(=O)=O
-1	-7	4	CCCN(C(=O)CSCc1ccc(C)cc1)c1c(N)n(Cc2ccccc2)c(=O)[nH]c1=O
22	1	6	C[C@@H]1O[C@H](C2CC2)Cc2[nH]c(=S)[nH]c(=O)c21
3	-2	0	Cc1cccc(C)c1-n1nnnc1C1(C)CCC(=O)N1c1ccc(N2CCOCC2)cc1 (stereo not given)
-85	-2	-1	N#Cc1cc2cc3c(cc2nc1Cl)OCCO3
5	-6	-8	CCOC(=O)[C@]12CCC=C1N(Cc1cccc3ccccc13)C(=O)[C@H](CC(=O)N1CCC(c3ccccc3)CC1)C2
-6	-8	-12	COC(=O)[C@@]12C[C@@H](CC(=O)NCCC(C)C)C(=O)N(Cc3ccccc3)C1=CCC(C)(C)C2
6	8	9	CCCc1cn(CC(C)n2c(=O)c3ccccc3n2Cc2cc(C(C)C)no2)nn1 (stereo not given)
21	2	-3	FC(F)(F)c1cc(Cl)c2nc(-c3ccc(Cl)cc3)c(Cc3ccsc3)n2c1
1	2	5	O=C1NC[C@H](CCCCN2C[C@H](Cc3ccc(O)cc3)N(CC3CCCCC3)C(=O)C2=O)N(CCc2ccccc2)C1=O
32	6	-29	CCCCc1c(-c2cccc(OC)c2)ncn1CCc1ccccc1OC

# Following part
HIV Env fusion	MT1-MMP act inh	MT1-MMP act inh RFP	compound
30	2	0	O=[N+]([O-])c1cc2no[n+]([O-])c2cc1N1CCCCC1
10	-5	0	CN(CC(=O)Nc1ccccc1C(=O)NC1CC1)Cc1ccccc1F
?	3	7	Nc1[nH]c(=O)nc2snnc12
11	-3	-1	Cn1nc(C(=O)NCc2ccccc2CN2CCCC2)c2ccccc2c1=O
16	-1	2	CC(C)n1nnnc1C1c2ccccc2C(=O)N1Cc1cccc(F)c1 (stereo not given)
3	0	-1	Cc1cc(C)c(NC(=O)CSCc2c(C)noc2C)c(Cl)c1
57*	-3	-5	Cc1csc(-c2nc3ccccc3n2C(C(=O)NC(C)(C)C)c2ccccc2)c1 (stereo not given)
3	2	6	CN1C=CC(=C[N+](=O)[O-])N(C)C1=O
3	-5	-10	COC(=O)[C@@]1(Sc2ccc(C)cc2)CC(=O)N(c2ccc(Cl)cc2)[C@@H]1c1ccccc1
-6	-4	-2	Cc1ccccc1C(=O)N1CCC[C@@H]1C(=O)N1CCC[C@H]1C(=O)NCc1ccncc1
1	-2	4	O=S(=O)(CS(=O)(=O)Oc1ccccc1)Oc1ccccc1
-1	0	4	COC(=O)CCCCC1=CCC2C(=O)C=C(O)C2C1 (stereo not given)
-15	1	3	CCOC(=O)N1CCN(C(=O)C[C@@H]2C[C@@]3(C(=O)OCC)CCCC=C3N(Cc3ccccc3)C2=O)CC1
10	-9	-5	O=C(Nc1ccc2c(c1)OCCO2)C(C1CC1)n1c(=O)c(-c2ccccc2)nc2ccccc21 (stereo not given)
35	-8	-19	CC1(C(=O)NCc2cccc3ccccc23)CCN1Cc1ccc(OC(F)(F)F)cc1 (stereo not given)
-217	-16	-4	CN(CCC#N)c1ccc(C=C(C#N)c2ccc(Br)cc2)cc1
-5	2	-1	OC(c1ccccc1)(c1ccccc1)C1CCN(CCCOc2ccc(F)cc2)CC1
37	4	-8	COc1cccc(C(=O)NCCCNc2nc3cc(C)cc(C)c3cc2C#N)c1
-78	2	-4	COc1ccc(N=C2C(=S)N(c3ccc(OC)cc3)C(=NS(=O)(=O)c3ccccc3)N2c2ccccc2)cc1
-1	6	-2	COC(=O)[C@@H]1ON2OCC(C)=C3CCCC[C@@]32[C@H]1C(=O)OC
25	2	4	CS(=O)(=O)c1ccc(S(=O)(=O)N2CCN(C(=O)C(O)c3ccccc3)CC2)cc1 (stereo not given)
44	-21	-22	CCCCNC(=O)C1C(c2ccc(C(F)(F)F)cc2)=Nc2ccccc2N1C(=O)c1cccc2ccccc12 (stereo not given)
-1	-2	-2	COc1ccc(Cc2c(-c3ccc(C#N)cc3)nc3c4ccccc4ccn23)c(C)c1
11	-3	0	COc1ccc(C(O)C(O)(C(=O)OC(C)C)c2ccc(C)cc2)cc1 (stereo not given)
7	-2	5	Nc1c(-c2ccc(F)cc2)nc2ncccn12
15	3	4	CCC(c1nnnn1-c1ccc2c(c1)OCCO2)N1CCN(C(=O)c2ccco2)CC1 (stereo not given)
-11	5	1	CCOC(=O)c1cc(-c2sc(NC(=O)c3ccccc3)nc2C)n(CCO)n1
19	1	2	CC(C)(C)C(=O)c1c(N)[nH]c(C(=O)c2ccccc2)c1-c1c(F)cccc1F
6	-9	-1	O=C1CCC/C1=c1\s/c(=C/c2cccnc2)c(=O)n1-c1ccccc1
-26	4	-18	COC(=O)C1(C(=O)OC)CCCCN(S(=O)(=O)c2ccc(C)cc2)CCC1
15	-1	-2	CC(C)N1CC2(CC(c3ccccc3C(F)(F)F)=NO2)CN1C(=O)c1ccco1 (stereo not given)
-18	5	4	O=c1ccn(Cc2ccccc2)c(SCc2ccccc2)n1
-239	5	-4	COc1ccc(-c2cc3ccccc3c(=O)o2)cc1
-64	2	2	CCC(=O)N1Cc2cc(C(=O)NCC(F)(F)F)nc(-c3cccc(-c4cncnc4)c3)c2[C@@H]1CCO
-37	13	9	COC(=O)/C=C1\OCc2ccc(C)cc21
1	3	3	COc1cccc(C(=O)N2CCC[C@@H]2C(=O)N2CCC[C@@H]2C(=O)NCc2ccccc2Cl)c1
-46	3	6	Cc1cccc(C)c1NC(=O)C1c2ccccc2OCC(=O)N1CCCN1CCOCC1 (stereo not given)
-57	-108	3	CC(=O)Nc1ccc(C=Cc2ccc([N+](=O)[O-])cc2)cc1

# Some of these compounds in order of number of heavy atoms, low to high:
HIV Env fusion	MT1-MMP act inh	MT1-MMP act inh RFP	compound
-37	13	9	COC(=O)/C=C1\OCc2ccc(C)cc21
7	-2	5	Nc1c(-c2ccc(F)cc2)nc2ncccn12
-239	5	-4	COc1ccc(-c2cc3ccccc3c(=O)o2)cc1
-57	-108	3	CC(=O)Nc1ccc(C=Cc2ccc([N+](=O)[O-])cc2)cc1
-18	5	4	O=c1ccn(Cc2ccccc2)c(SCc2ccccc2)n1
11	-3	0	COc1ccc(C(O)C(O)(C(=O)OC(C)C)c2ccc(C)cc2)cc1 (stereo not given)
-26	4	-18	COC(=O)C1(C(=O)OC)CCCCN(S(=O)(=O)c2ccc(C)cc2)CCC1
19	1	2	CC(C)(C)C(=O)c1c(N)[nH]c(C(=O)c2ccccc2)c1-c1c(F)cccc1F
25	2	4	CS(=O)(=O)c1ccc(S(=O)(=O)N2CCN(C(=O)C(O)c3ccccc3)CC2)cc1 (stereo not given)
15	3	4	CCC(c1nnnn1-c1ccc2c(c1)OCCO2)N1CCN(C(=O)c2ccco2)CC1 (stereo not given)
-46	3	6	Cc1cccc(C)c1NC(=O)C1c2ccccc2OCC(=O)N1CCCN1CCOCC1 (stereo not given)
1	3	3	COc1cccc(C(=O)N2CCC[C@@H]2C(=O)N2CCC[C@@H]2C(=O)NCc2ccccc2Cl)c1
-64	2	2	CCC(=O)N1Cc2cc(C(=O)NCC(F)(F)F)nc(-c3cccc(-c4cncnc4)c3)c2[C@@H]1CCO
44	-21	-22	CCCCNC(=O)C1C(c2ccc(C(F)(F)F)cc2)=Nc2ccccc2N1C(=O)c1cccc2ccccc12 (stereo not given)
